Prx2 Sm inh: Schistosoma Mansoni Peroxiredoxins (Prx2); Schistosoma mansoni peroxiredoxin 2 (Prx2); S. mansoni Prx2 activity coupled to TGR/GSH (TGR is thioredoxin glutathione reductase), NADPH fluorescence loss, qHTS; some inactives read as strong as hits; Potency, µM; hit rate 0.07% among 65,000; AID 448, 2006; active means full or partial inhibition curve with a strong effect at the top dose; inconclusive means weaker partial or single-point curve; inactive means no accepted curve; further: series up to 57 µM; many of its hits are not listed in these tables
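qHTS, coupled TGR/Prx2 format; 15 min compound preincubation at RT; reaction started with H2O2 (2.5 mM aliquot); kinetic NADPH fluorescence decrease, ex 365/em 450 nm.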
LT uptake inh: qHTS Assay for Anthrax Lethal Toxin Internalization. Cells, anthrax lethal toxin internalization, FRET ratio (460/530). Potency, µM (titrated, usually from 40 µM), for inactives: at the top dose activity change, negative = inhibition, hits mostly inhibitors. hit rate 0.67% among 70,000; active = well fitted falling ratio curve with the 530 nm signal flat; inconclusive = other ratio curves, or a change in one channel alone; inactive = flat curves in the ratio and both channels; the % refers to the ratio; further: on the % scale 0 is the no-effect control and ±100 the full control effect; nearly all actives have a fitted effect of over 50% in size; tested in ME-180 cells; beta-lactamase reporter
* marks the source's active call; other numbers are inactive results; ? = inconclusive; . = not tested or not shown; & = joins results of further samples; [ ] = another dose, or the depositor's remark. Potency means the concentration at half of the fitted maximal effect. Not all compounds are listed. The share of hits here may be higher or lower than overall.

Molecule | LT uptake inh | Prx2 Sm inh
CC(C)CCSc1nc2c(c(=O)[nH]c(=O)n2C)n1CCc1ccccc1 | -4% | >57
Nc1cc(Cl)cc(C(=O)O)c1Cl | -7% | .
Cc1cccc(N(C)S(=O)(=O)c2ccc3[nH]c(=O)c(=O)[nH]c3c2)c1 | 19% | >57
COc1cc(NS(=O)(=O)c2ccc(NC(=O)C34CC5CC(CC(C5)C3)C4)cc2)ncn1 | 7% | >57
CCOC(=O)C1=C(C)NC(SCc2cc(=O)[nH][nH]2)=C(C#N)C1c1cccs1 (centres undefined) | -14% | >57
CCOC(=O)C1=C(Nc2ccccc2)OCC1=O | -8% | >57
CC12CCC(C(=O)NCc3ccc4c(c3)OCO4)(CC1=O)C2(C)C (centres undefined) | 9% | >57
CCOc1ccccc1NC(=O)C1CCCN1C(=O)OCc1ccccc1 (centres undefined) | 6% | >57
COc1ccc(-c2nc(C)sc2CC(=O)O)cc1 | -7% | >57
Cc1cc(NC(=O)C2CC=CCC2C(=O)O)no1 (centres undefined) | . | >57
CC(=O)NC1(c2cccc(F)c2)CCN(CC(=O)NC2CCCCC2)CC1 | 7% | >57
Cn1c(-n2c(CCCN3C(=O)c4ccccc4C3=O)nc3ccccc3c2=O)nc2ccccc21 | -10% | >57
O=C(Cc1ccccc1)N1CCN(C/C=C/c2ccccc2)CC1 | -20% | >57
COc1cc(C)c(C(C)C)cc1S(=O)(=O)N1CCOCC1 | . | >57
COCCCNC(=O)CCCn1c(=O)c2ccccc2n(CC(=O)Nc2c(C)cccc2C)c1=O | 8% | >57
COc1ccc(S(=O)(=O)Cc2ccc(C(=O)N3CCOCC3)o2)cc1 | 2% | >57
COc1ccccc1N1C(=O)C2CC(C)=C(C)CC2C1=O (centres undefined) | 9% | >57
NCCNc1cccc2ccccc12 | ? | .
CCN1C(=O)c2ccccc2S(=O)c2ccc(C(=O)N3CCCC3)cc21 (centres undefined) | 6% | >57
Cc1nc(N2CCN(Cc3ccc4c(c3)OCO4)CC2)nc2c1C(=O)CC(c1ccco1)C2 (centres undefined) | ? | >57
CC(C)Sc1nc2c(c(=O)n1C)SC(C)C2 (centres undefined) | 4% | >57
CCOn1c(=O)c(-c2cc3ccccc3o2)[n+]([O-])c2ccccc21 | -8% | >57
COc1ccc(Br)cc1C1SCCN1S(C)(=O)=O (centres undefined) | 1% | >57
c1ccc(/C(=N/Nc2nc3ccccc3s2)c2ccccn2)cc1 | -21%[8 µM] | >57
COc1ccc(Cl)cc1NC(=O)c1cnc2sccn2c1=O | -4% | >57

Molecule | LT uptake inh | Prx2 Sm inh
Cn1ccnc1 | 0% | >57
CCN(CC)CCCN1C(=O)C(O)=C(C(=O)c2sc(C)nc2C)C1c1ccc(C)o1 (centres undefined) | 9% | >57
CCSc1nnc(NC(=O)C(C)(C)C)s1 | -6% | .
CC(=O)Nc1ccc(NS(=O)(=O)C(F)(F)F)cc1 | -5% | >57
CCOC(=O)c1ccc(Nc2cc(C)nc3ncnn23)cc1 | -1% | >57
CCN(CCCNC(=O)CCNC(=O)Cn1ccc2ccccc2c1=O)c1ccccc1 | 5% | >57
Cc1ccc(S(=O)(=O)N(C)CC(=O)OCc2nnc(-c3ccccc3)o2)cc1 | ? | >57
Cc1ccc(-c2nn(CC(=O)O)c(=O)c3ccccc23)cc1 | -18% | .
COc1ccc(CNC(=O)C2CC(c3ccc(F)cc3)=NO2)cc1 (centres undefined) | -26% | >57
CCCn1c2c(c(O)c(C(=O)Nc3ccc(OC)cc3)c1=O)CCCC2 | -16% | >57
O=C(c1ccncc1)N1CCC2(CCCN(C(c3ccccc3)c3ccccc3)C2)CC1 | ? | >57
CN1C[C@@H](CS(=O)(=O)N(C)C)C[C@H]2c3cccc4c3c(cn4C)C[C@@H]21 | 3% | >57
Cc1ccc2nc(NC3=NCN(Cc4cccnc4)CN3)nc(C)c2c1 | ? | >57
CN1C2CCC1CC(OC(=O)c1c[nH]c3ccccc13)C2 (centres undefined) | -38% | >57
Cc1cc(NC(=O)C2COc3ccccc3O2)no1 (centres undefined) | 8% | >57
Cc1cc(C(F)(F)F)n2ncc(-c3ccccc3)c2n1 | -4% | >57
CC(=O)NC1CCN(C(=O)N2CCCC2)CC1 | -5% | >57
COc1ccc(CN2CCCC(C(=O)N3CCCC3)C2)cc1 (centres undefined) | -3% | >57
O=S(=O)(c1ccc(F)cc1)N(CCO)CC(O)Cn1c2ccccc2c2ccccc21 (centres undefined) | ? | >57
COc1ccc(N2C(=O)CC(N3CC=C(c4ccccc4)CC3)C2=O)cc1 (centres undefined) | -9% | >57
O=C(NCN1CCc2ccccc2C1)c1ccccc1 | -23% | >57
CCOC(=O)c1cccc(NC(=O)CSc2nnc(COc3ccc(Cl)cc3)o2)c1 | -11% | >57
O=C(CCCN1C(=O)c2ccccc2C1=O)Oc1ccc(F)cc1 | 1% | >57
Cc1ccc(-c2nnc3n2N=C(c2ccc(Br)cc2)CS3)cc1 | -8% | >57
CC(C)COC(=O)c1ccccc1C(=O)OCC(C)C | ? | .

Molecule | LT uptake inh | Prx2 Sm inh
COc1cc(S(=O)(=O)N2CCCCC2)ccc1NC(=O)c1ccc(F)cc1 | 0% | >57
CCOC(=O)N1CCC(NC(=O)Cc2cn(C)c3ccccc23)CC1 | 7% | >57
Cc1ccc(C(=O)NC2CCN(C(=O)N3CCOCC3)CC2)cc1 | 2% | >57
COCCCNC(=O)CN1C(=O)CSc2ncccc21 | 4% | >57
C=CCc1ccccc1OC[C@H](O)CNC(C)C | -10%[3.58 µM] | >57&>57
CCOc1cc(S(=O)(=O)Nc2ccccn2)ccc1F | 0% | >57
O=c1nc(NC2CCCC2)ccn1Cc1cccc(Br)c1 | ? | >57
CCOC(=O)NC1(C(F)(F)F)C(=O)NC(C)=C1C(=O)OC (centres undefined) | -9% | >57
CCOC(=O)C1CCCN(C(=O)c2ccc(CS(=O)(=O)Cc3ccccc3C)o2)C1 (centres undefined) | ? | >57
COc1ccccc1OCC(=O)Nc1ccc(S(=O)(=O)NC(C)=O)cc1 | -6% | .
CCOC(=O)C1CCN(C(=O)CN(Cc2ccc(Cl)cc2)S(C)(=O)=O)CC1 | 7% | >57
CC(C)COC(=O)Nc1ccccc1C(=O)N1CCOCC1 | . | >57
CCCCn1nnc(NC(=O)COc2cc(C)ccc2C(C)C)n1 | 10µM* | >57
Cc1ccc(C)c(OCC(=O)Nc2cc(C)on2)c1 | -5% | >57
CC1CCc2ccccc2N1C(=O)c1cccs1 (centres undefined) | -21% | >57
Cn1cccc1C(=O)N1CCC[C@@]2(CCN(C(=O)Nc3cccc(F)c3)C2)C1 | 0% | >57
COC(=O)c1cc(OC)c(OC)cc1NC(=O)c1cccnc1 | ? | >57
COc1cccc(Nc2c(F)c(F)c(F)c(F)c2C(=O)O)c1 | -1% | >57
O=C(Nc1ccn(Cc2ccc(F)cc2)n1)c1ccncc1 | -6% | >57
CCC(Sc1nc2cc3c(cc2c(=O)n1Cc1ccco1)OCO3)C(=O)Nc1cccc(OC)c1 (centres undefined) | 3% | >57
CSc1oc(-c2ccccc2)nc1S(=O)(=O)c1ccc(C)cc1 | -18% | >57
CC(C)(C)NC[C@H](O)COc1cccc2c1CCC(=O)N2 | -6%[3.58 µM] | >57
Cn1c(SCc2ccccc2)nnc1C1CCCNC1 (centres undefined) | -7% | >57
O=c1sc(N2CCN(c3ccccc3F)CC2)nc2ccsc12 | ? | >57
CCOC(=O)N1CCC(NC(=O)Cn2nc(Cc3ccncc3)c3ccccc3c2=O)CC1 | -10% | >57

Reprinted at random: 5 compounds from above
Molecule | LT uptake inh | Prx2 Sm inh
CC(C)(C)NC[C@H](O)COc1cccc2c1CCC(=O)N2 | -6%[3.58 µM] | >57
O=c1sc(N2CCN(c3ccccc3F)CC2)nc2ccsc12 | ? | >57
CC(C)COC(=O)Nc1ccccc1C(=O)N1CCOCC1 | . | >57
CC1CCc2ccccc2N1C(=O)c1cccs1 (centres undefined) | -21% | >57
CCOC(=O)NC1(C(F)(F)F)C(=O)NC(C)=C1C(=O)OC (centres undefined) | -9% | >57

Further records.
Molecule | LT uptake inh | Prx2 Sm inh
CC(C)C12CN3CCN(CC(C3)C1O)C2 (centres undefined) | -3% | >57
O=C(CSc1ccc2nnc(-c3cccnc3)n2n1)N1CCc2ccccc21 | 5% | >57
CCOC(=O)c1c(C)c(C(=O)N2CCCCCC2)c(C)n1C | -3% | >57
CCc1nnc(NC(=O)c2cccc(S(=O)(=O)N3CCc4ccccc43)c2)s1 | 1% | >57
Cc1nn(-c2ccccc2)c(C)c1C(=O)OCC(=O)NCc1ccco1 | -11% | >57
Cc1cc(C)c2c(=O)[nH]n(C3CCOC(C)(C)C3)c2n1 (centres undefined) | -5% | >57
CC(C)C(NC(=O)OC(C)(C)C)C(=O)N1CCCC1C(=O)NC(Cc1ccccc1)C(N)=O (centres undefined) | ? | >57
Cc1cc(N2CCCCC2)n2ncc(-c3ccc(Cl)cc3)c2n1 | ? | .
Cc1noc(C)c1-c1nccc(NCc2ccccc2)n1 | ? | >57
CCc1c(C)sc(NC(=O)c2cc(C3CC3)on2)c1C#N | -26% | >57
O=C(Nc1cc(C(=O)N2CCOCC2)ccc1N1CCCC1)c1cccs1 | 2% | >57
COc1cc2c(cc1OC)CN(Cc1cc(=O)n3cc(C)ccc3n1)CC2 | -3% | >57
CN(CCCNC(=O)C1CCC(=O)N1Cc1ccc(F)cc1)c1ccccc1 (centres undefined) | 8% | >57
O=C(NCc1ccc(F)cc1)C1C2C=CC3(CN(Cc4cccnc4)C(=O)C13)O2 (centres undefined) | -3% | >57
CCOc1cc(-c2nc(-c3ccc(C)nc3OCC)no2)cc(OCC)c1OCC | 8% | >57
O=C1c2ccccc2C(=O)N1c1ccc(-c2nc3ccccc3o2)cc1 | -3% | >57
CCN1CCN(C(=O)Nc2cccc3ccccc23)CC1 | 0% | .
O=c1[nH]c2ccc(S(=O)(=O)NCc3ccccn3)cc2s1 | 6% | >57
Cc1[nH]nc2ncc(C(=O)c3ccccc3O)cc12 | -15% | >57
c1ccc2c(CNn3cnnc3)cccc2c1 | 0% | >57
O=C(COc1ccc(Cl)cc1)NCCCn1ccnc1 | -14% | .
CCc1ccc(CCC(=O)Nc2nnc(C)s2)o1 | -7% | >57
O=C(O)Cn1c(=O)oc2cc(S(=O)(=O)N3CCOCC3)ccc21 | 1% | >57
O=c1c2cccnc2[nH]c(=S)n1CCCN1CCN(c2ccccc2F)CC1 | 4% | >57
Cc1cc(Nc2cccc(F)c2)nc(-c2ccccc2O)n1 | ? | >57

Compounds shown so far containing bromine, in the order listed:
Molecule | LT uptake inh | Prx2 Sm inh
COc1ccc(Br)cc1C1SCCN1S(C)(=O)=O (centres undefined) | 1% | >57
Cc1ccc(-c2nnc3n2N=C(c2ccc(Br)cc2)CS3)cc1 | -8% | >57
O=c1nc(NC2CCCC2)ccn1Cc1cccc(Br)c1 | ? | >57

Further structures follow.
Molecule | LT uptake inh | Prx2 Sm inh
CCC(=O)Nc1ccc(NC(=O)Cc2ccccc2)cn1 | 11% | >57
CCCCCOc1ccc(C(=O)NC(CCC)C(=O)O)cc1 (centres undefined) | -13% | >57
N#CC(C(N)=O)=C1CCC2(CC1)OCCCCO2 | -19% | >57
CCCCOCCCNC(=O)Cc1cccs1 | ? | .
O=C(COc1ccc(-c2nnco2)cc1)N1CCN(S(=O)(=O)c2ccccc2)CC1 | -16% | >57
CC1(C)CNC(=O)c2sc(N3CCCCC3)nc2C1 | -16% | >57
CCCc1cc(C(=O)Nc2cccnc2)no1 | -13% | >57
CC(=O)NCCc1ccc(S(=O)(=O)N2CCOCC2)cc1 | 0% | >57
COc1ccc(S(=O)(=O)N2CCSC2c2ccc(OC)c(OC)c2)cc1 (centres undefined) | -14% | >57
N#CCOc1nc(N2CCOCC2)nc(N2CCOCC2)n1 | -17% | >57
C[N@@+]1(CC[N@@+]2(C)CCC[C@H]2c2cccnc2)CCC[C@@H]1c1cccnc1 | -10%[8 µM] | >57
Oc1ccc(-c2[nH]ncc2-c2ccc(Cl)cc2)c(O)c1 | . | >57
CCOC(=O)N1CCC(N2CCN(c3cc(C)ccc3C)CC2)CC1 | -8% | .
Cn1c(=O)c2cc(S(=O)(=O)N3CCOCC3)ccc2n(C)c1=O | 2% | >57
CC(=O)Nc1nnc(C)s1 | 0% | >57
CCCCCCCCCCCCCCCCCC(=O)NC[C@@H](COP(=O)([O-])OCC[N+](C)(C)C)OCC | ? | ?
CCOc1ccccc1C1C(C#N)=C(SCC(=O)OC)NC(=O)C1C(=O)OC (centres undefined) | 4% | >57
Cc1cnc(CNc2nc(-c3ccc(N(C)C)cc3)nc3ccccc23)cn1 | 8% | >57
COC(=O)NC1CCS(=O)(=O)C1 (centres undefined) | -20% | >57
COc1ccccc1NC(=O)C1=C(C)Nc2nc(CCCO)nn2C1c1ccc2c(c1)OCO2 (centres undefined) | 5% | >57
C[C@](N)(COP(=O)(O)O)C(=O)O | ? | >26

Bioassay records from PubChem BioAssay.
